Vaccinia inh: Vaccinia orthopox stage-specific inhibition; Vaccinia-infected cells, mCherry/Venus stage reporter fluorescence; hits give low values; some inactives read as strong as hits; AID 1053133; hit rate 0.01% among 89,000; activity change (mCherry), % (concentration not given with the values);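 active = mCherry past -33% and 40 or more points under the early reporter, replicates agreeing; inconclusive = past -33% without that gap or agreement; tested in A549 cells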;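 also: scaled between vehicle wells and reference inhibitor wells; 23 nL library stock went into each well; one replicate is shown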
Vaccinia inh Venus: second read-out of Vaccinia inh, no call of its own (marks repeat the call); activity change (Venus), %; measured here: Venus reporter, other viral stage;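 negative = less Venus signal; first of two replicates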
* = called active by the depositor; ? = inconclusive; . = no result given.

SMILES	Vaccinia inh	Vaccinia inh Venus
C[C@H](CO)N1C[C@H](C)[C@H](CN(C)S(C)(=O)=O)OCc2cnnn2CCCC1=O	8.3	3.5
COc1ccc(CNC(=O)C[C@H]2C[C@H]3c4cc(NC(=O)C5CCC5)ccc4O[C@H]3[C@@H](CO)O2)cc1	16.3	21.9
CN1C(=O)c2cc(NS(C)(=O)=O)ccc2OC[C@H]2O[C@@H](CC(=O)NC3CCCCC3)CC[C@@H]21	5.4	4.5
C[C@H](CO)N1C[C@H](C)[C@@H](CN(C)C(=O)Nc2cccc3ccccc23)OCCCC[C@H](C)Oc2ccc(N(C)C)cc2C1=O	-4.9	8.7
COc1ccc2c3c(n(C)c2c1)[C@H](CO)N(C(=O)C1CC1)CC31CN(C)C1	7.4	6.1
COc1cccc(-c2ccc3c(c2)[C@H]2[C@H](CCN2S(=O)(=O)c2ccccc2OC)[C@@H](CO)N3C)c1	?	.
CC(=O)N1CC(=O)N2[C@H](C1)[C@@H](c1ccc(-c3cccc(C(=O)N(C)C)c3)cc1)[C@@H]2CO	44.6	15.8
COc1ccc(S(=O)(=O)N(C)C[C@H]2OCc3cnnn3CCCC(=O)N([C@@H](C)CO)C[C@@H]2C)cc1	3.3	2.5
CC(C)NC(=O)N(C)C[C@H]1Oc2cc(C#C[C@@H](C)O)ccc2S(=O)(=O)N([C@H](C)CO)C[C@H]1C	33.4	14.3
C[C@@H]1CCCCO[C@H](CN(C)C(=O)Nc2ccccc2)[C@@H](C)CN([C@H](C)CO)C(=O)c2cc(NS(C)(=O)=O)ccc2O1	10.5	9.4
CCC(=O)Nc1ccc2c(c1)OC[C@@H](C)N(C(=O)c1cnccn1)C[C@@H](C)[C@H](OC)CN(C)C2=O	7.4	1.6
CCN1[C@@H]2c3ccc(-c4ccccc4F)c(=O)n3C[C@H]1[C@H](CO)[C@H]2C(=O)N1CCCCC1	12.2	11.0
C[C@H](O)C#Cc1ccc([C@@H]2[C@H]3CN(C(=O)c4ccc(F)cc4)CCCCN3[C@H]2CO)cc1	6.2	-11.6
COc1cccc(NC(=O)N(C)C[C@H]2Oc3ncc(C#Cc4ccccc4)cc3C(=O)N([C@@H](C)CO)C[C@@H]2C)c1	-14.4	-12.3
CCC(=O)N1[C@H](CO)[C@H](c2ccc(-c3ccccc3OC)cc2)C12CN(C(C)=O)C2	4.6	5.6
C[C@H]1CN([C@@H](C)CO)C(=O)c2cc(C3=CCCC3)cnc2O[C@@H]1CN(C)C(=O)Nc1ccccc1	4.9	1.9
CC(C)NC(=O)N1CC(=O)N2[C@H](CO)[C@@H](c3ccc(/C=C/c4ccccc4)cc3)[C@@H]2C1	-31.4	-18.2
CCCNC(=O)[C@H]1[C@H](CO)[C@H]2Cn3c(ccc(C4=CCCC4)c3=O)[C@H]2N1C(=O)C1CC1	9.4	10.4
CN1c2ccc(-c3ccccc3F)cc2[C@@H]2[C@@H](CCN2S(=O)(=O)c2ccccc2)[C@H]1CO	-6.4	-4.9
CO[C@@H]1CN(C)C(=O)c2cc(NC(=O)Nc3ccccc3Cl)ccc2OC[C@H](C)NC[C@@H]1C	-14.9	-6.3
C[C@H](CO)N1C[C@H](C)[C@@H](CN(C)S(C)(=O)=O)Oc2ccc(NS(=O)(=O)c3cccs3)cc2CC1=O	4.5	-1.8
COC(=O)c1ccc(CN2CC(=O)N3[C@H](CO)[C@H](c4ccc(-c5ccccc5F)cc4)[C@H]3C2)cc1	-32.6	-26.0
C[C@@H]1CN([C@@H](C)CO)C(=O)c2cc(NS(=O)(=O)c3cn(C)cn3)ccc2O[C@@H](C)CCCCO[C@H]1CN(C)Cc1ccccc1	14.8	5.7
C[C@H]1CN([C@@H](C)CO)C(=O)c2cccc(NS(=O)(=O)c3cn(C)cn3)c2O[C@H]1CN(C)C(=O)Nc1ccc(F)cc1	5.0	-1.2
COCC#Cc1ccc2c(c1)O[C@H](CN(C)C(=O)CN(C)C)[C@H](C)CN([C@@H](C)CO)S2(=O)=O	13.1	10.1
C[C@H]1CN([C@@H](C)CO)C(=O)Cc2cc(NC(=O)c3ccncc3)ccc2O[C@H]1CN(C)Cc1ccc(C(=O)O)cc1	32.0	10.5
C[C@@H]1CN([C@@H](C)CO)C(=O)c2cc(NS(=O)(=O)c3cccs3)ccc2O[C@@H](C)CCCCO[C@H]1CN(C)S(=O)(=O)c1ccc(Cl)cc1	-13.4	-12.0
CC(C)NC(=O)N[C@H]1CC[C@H](CCNC(=O)C2CCC2)O[C@@H]1CO	-6.0	0.9
C[C@@H]1CN([C@@H](C)CO)C(=O)c2cccc(NS(C)(=O)=O)c2O[C@@H]1CN(C)CC1CCCCC1	11.0	2.4
C[C@H](CO)N1C[C@H](C)[C@H](CN(C)C(=O)c2ccccc2F)Oc2ncc(C#C[C@@H](C)O)cc2C1=O	5.2	0.1
C[C@@H]1CN([C@@H](C)CO)C(=O)Cc2cc(NC(=O)CCC(F)(F)F)ccc2O[C@@H]1CN(C)S(=O)(=O)c1ccc(F)cc1	10.6	11.8
C[C@@H]1CN([C@H](C)CO)C(=O)c2cc(C#CCN(C)C)cnc2O[C@H]1CN(C)Cc1ccccc1F	16.4	0.4
COc1ccc(C(=O)N2C[C@@H]3[C@H](c4ccccc42)[C@@H](CO)N3C(=O)Cc2ccccn2)cc1	7.1	9.3
CO[C@H]1CN(C)C(=O)c2cc(NS(C)(=O)=O)ccc2OC[C@H](C)N(CC2CC2)C[C@@H]1C	1.4	0.9
C[C@H](CO)N1C[C@H](C)[C@H](CN(C)S(=O)(=O)c2ccccc2)Oc2c(NC(=O)C3CCOCC3)cccc2C1=O	10.6	-6.3
CN1CCN(C(=O)C[C@@H]2CC[C@@H](NC(=O)Nc3ccccc3F)[C@H](CO)O2)CC1	1.6	2.3
C[C@@H]1CN([C@@H](C)CO)S(=O)(=O)c2ccc(C#CCN(C)C)cc2O[C@H]1CN(C)CC1CCCC1	-21.6	-15.8
C[C@@H]1CN([C@H](C)CO)C(=O)c2cc(NC(=O)c3ccccc3)ccc2O[C@@H](C)CCCCO[C@H]1CN(C)C(=O)Nc1ccc(C(F)(F)F)cc1	-17.1	-14.0
O=C(NC[C@@H]1N[C@@H](CO)[C@H]1c1ccc(C2=CCCCC2)cc1)c1ccc(F)cc1	6.1	25.7
O=C([C@H]1[C@H](CO)[C@H]2Cn3c(cccc3=O)[C@H]2N1Cc1ccccc1Cl)N1CCOCC1	-0.1	5.3
O=C(N[C@@H]1CC[C@H](CCNC(=O)C2CCCC2)O[C@H]1CO)c1ccccn1	3.6	7.2
O=C(C[C@H]1C=C[C@H](NS(=O)(=O)c2ccc(F)cc2)[C@@H](CO)O1)NCc1ccccc1F	1.0	-4.3
C[C@H](CO)N1C[C@H](C)[C@@H](CN(C)C(=O)CCCN(C)C)OCCCC[C@H](C)Oc2ccc(NC(=O)CCC(F)(F)F)cc2C1=O	12.6	0.3
CO[C@H]1CN(C)C(=O)c2ccc(NC(C)=O)cc2OC[C@@H](C)N(C(=O)C2CCCCC2)C[C@H]1C	-8.2	-4.8
Cc1ccc(S(=O)(=O)Nc2ccc3c(c2)C(=O)N([C@@H](C)CO)C[C@@H](C)[C@@H](CN(C)Cc2ccc(C(=O)Nc4ccccc4N)cc2)O3)cc1	-13.5	-10.6
C[C@@H]1CCCCO[C@H](CN(C)Cc2ccc3c(c2)OCO3)[C@H](C)CN([C@H](C)CO)C(=O)c2cc(NC(=O)Nc3ccc(F)cc3)ccc2O1	?	.
Cc1ccc(S(=O)(=O)N(C)C[C@H]2Oc3ccc(NC(=O)NC(C)C)cc3CC(=O)N([C@H](C)CO)C[C@@H]2C)cc1	1.8	-3.8
COc1ccccc1S(=O)(=O)N[C@@H]1CC[C@H](CCNC(=O)C2CCOCC2)O[C@@H]1CO	3.9	5.2
CO[C@@H]1CN(C)C(=O)c2ccc(NC(=O)CC(F)(F)F)cc2OC[C@@H](C)N(C(=O)C2CCOCC2)C[C@@H]1C	-0.4	3.9
C[C@@H]1CN([C@@H](C)CO)C(=O)Cc2cc(NC(=O)Nc3ccccc3)ccc2O[C@@H]1CN(C)Cc1ccc(C(F)(F)F)cc1	?	.
CC(C)NC(=O)N(C)C[C@H]1OCCCC[C@H](C)Oc2ccc(NS(=O)(=O)c3ccc(F)cc3)cc2C(=O)N([C@H](C)CO)C[C@H]1C	25.4	12.8
CCN(C[C@@H]1[C@@H](c2ccccc2)[C@H](CO)N1CC1CC1)C(C)=O	6.2	5.4
COc1ccc(S(=O)(=O)Nc2ccc3c(c2)C(=O)N(C)C[C@H](OC)[C@@H](C)CN[C@@H](C)CO3)cc1	19.7	13.3
CCCC(=O)Nc1ccc2c(c1)OC[C@@H](C)N(C(=O)c1ccccn1)C[C@@H](C)[C@@H](OC)CN(C)C2=O	6.6	-0.9
COc1ccc(C#Cc2ccc3c(c2)O[C@H](CN(C)S(=O)(=O)c2ccccc2F)[C@@H](C)CN([C@H](C)CO)S3(=O)=O)cc1	0.3	-1.8
C[C@H](CO)N1C[C@H](C)[C@@H](CN(C)C(=O)Nc2ccc(C(F)(F)F)cc2)Oc2ccc(NC(=O)Cc3cn(C)c4ccccc34)cc2C1=O	-0.3	11.7
C[C@@H]1CN([C@@H](C)CO)C(=O)Cc2cc(NS(=O)(=O)c3cn(C)cn3)ccc2O[C@H]1CN(C)C(=O)Nc1ccc(C(F)(F)F)cc1	3.3	-4.2
C[C@@H]1CN([C@@H](C)CO)S(=O)(=O)c2ccc(C3=CCCCC3)cc2O[C@@H]1CN(C)C(=O)C1CCOCC1	-21.8	-23.1
C/C=C/c1ccc([C@H]2[C@@H](CO)N(Cc3cncnc3)C23CN(C(C)=O)C3)cc1	12.4	11.2
CO[C@@H]1CN(C)C(=O)c2ccc(NC(=O)c3cccc(F)c3)cc2OC[C@@H](C)N(CC2CC2)C[C@@H]1C	-4.0	-3.7

Other compounds follow.
SMILES	Vaccinia inh	Vaccinia inh Venus
CCCNC(=O)[C@H]1[C@H](CO)[C@H]2Cn3c(ccc(/C=C/c4ccccc4)c3=O)[C@H]2N1CC	-11.9	-10.2
COc1cccc(S(=O)(=O)N[C@H]2C=C[C@@H](CC(=O)NCc3ccc(Cl)cc3)O[C@H]2CO)c1	-18.6	-16.1
C[C@H]1CN([C@@H](C)CO)C(=O)c2cccc(NC(=O)c3ccncc3)c2O[C@@H]1CN(C)Cc1ccccc1	7.1	4.1
COc1ccc(S(=O)(=O)N(C)C[C@@H]2Oc3cc(C4=CCCC4)ccc3S(=O)(=O)N([C@@H](C)CO)C[C@H]2C)cc1	-21.3	-18.1
COc1ccccc1-c1ccc2c(c1)O[C@H](CN(C)S(=O)(=O)c1ccc(C)cc1)[C@@H](C)CN([C@H](C)CO)S2(=O)=O	-11.1	-2.9
COc1ccc(S(=O)(=O)Nc2cccc3c2O[C@@H](CN(C)C(=O)Nc2ccc(C(F)(F)F)cc2)[C@H](C)CN([C@@H](C)CO)C3=O)cc1	-12.1	2.5
O=C(C[C@@H]1C[C@H]2c3cc(NC(=O)C4CCOCC4)ccc3O[C@H]2[C@H](CO)O1)NCc1ccc(Cl)cc1	11.5	12.6
Cc1ccc(S(=O)(=O)N[C@H]2CC[C@@H](CCNC(=O)c3ccccc3F)O[C@@H]2CO)cc1	?	.
O=C(N[C@@H]1CC[C@@H](CCn2cc(-c3cccnc3)nn2)O[C@@H]1CO)c1ccccc1F	4.6	10.2
C[C@@H]1CN([C@H](C)CO)S(=O)(=O)c2ccc(C#C[C@@H](C)O)cc2O[C@H]1CN(C)C(=O)c1ccncc1	6.8	2.0
CN1C(=O)c2cc(NC(=O)c3cc(F)cc(F)c3)ccc2OC[C@H]2O[C@H](CC(=O)O)CC[C@H]21	8.1	5.7
COCC#Cc1ccc([C@H]2[C@@H](CO)N3CCCCN(C(=O)NC4CCCC4)C[C@@H]23)cc1	-3.8	0.6
O=C(NCCN1CCCC1)[C@H]1[C@H](CO)[C@H]2Cn3c(cccc3=O)[C@H]2N1C(=O)c1ccccc1	-2.4	-3.6
CC(=O)N[C@@H]1CC[C@H](CCNC(=O)C2CCC2)O[C@@H]1CO	-4.3	-1.4
CCCNC(=O)N1CC2(C1)CN(Cc1cccc(OC)c1)[C@H](CO)c1[nH]c3cc(OC)ccc3c12	24.0	12.2
CO[C@@H](CN(C)Cc1cc(F)ccc1F)[C@H](C)CN(C(=O)Nc1ccc(F)cc1)[C@@H](C)CO	4.3	3.0
Cc1noc(C)c1NC(=O)N(C)C[C@H]1OCCCC[C@@H](C)Oc2ccc(NS(=O)(=O)c3cccs3)cc2C(=O)N([C@H](C)CO)C[C@@H]1C	31.6	14.3
COc1ccc(S(=O)(=O)Nc2ccc3c(c2)C(=O)N([C@H](C)CO)C[C@H](C)[C@@H](CN(C)Cc2ccc4c(c2)OCO4)OCCCC[C@H](C)O3)cc1	?	.
C[C@@H]1CN([C@H](C)CO)C(=O)c2cc(C3=CCCCC3)cnc2O[C@@H]1CN(C)C(=O)c1ccccn1	8.0	11.6

Laid out differently: results already given
Under each structure – Vaccinia inh, Vaccinia inh Venus
> Cc1noc(C)c1NC(=O)N(C)C[C@H]1OCCCC[C@@H](C)Oc2ccc(NS(=O)(=O)c3cccs3)cc2C(=O)N([C@H](C)CO)C[C@@H]1C
→ 31.6, 14.3
> C[C@H]1CN([C@@H](C)CO)C(=O)c2cccc(NC(=O)c3ccncc3)c2O[C@@H]1CN(C)Cc1ccccc1
→ 7.1, 4.1
> CO[C@@H](CN(C)Cc1cc(F)ccc1F)[C@H](C)CN(C(=O)Nc1ccc(F)cc1)[C@@H](C)CO
→ 4.3, 3.0
> CN1C(=O)c2cc(NC(=O)c3cc(F)cc(F)c3)ccc2OC[C@H]2O[C@H](CC(=O)O)CC[C@H]21
→ 8.1, 5.7
> O=C(N[C@@H]1CC[C@@H](CCn2cc(-c3cccnc3)nn2)O[C@@H]1CO)c1ccccc1F
→ 4.6, 10.2
> O=C(C[C@@H]1C[C@H]2c3cc(NC(=O)C4CCOCC4)ccc3O[C@H]2[C@H](CO)O1)NCc1ccc(Cl)cc1
→ 11.5, 12.6

Compound activity (PubChem BioAssay)

The list is partial; count on the stated rates, not on these rows.
